PKD1 kinase inh: PKD1 (human) kinase inhibition; inhibition, %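 (about 10 µM by stock and volumes)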; PKD1 kinase fluorescence polarization assay; Q15139; 200,000 compounds, 0.056% hits;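 active = inhibition of 50% or more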;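 note: controls were vehicle for no effect and a reference inhibitor for full effect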
Insulin prom inh: TRM-6 insulin promoter activity inhibition. 130,000 compounds, 0.9% hits. AID 1273. TRM-6 cells (human fetal islet line), insulin promoter-eGFP reporter, imaging; reporter expression induced with tamoxifen. inhibition, % at 2 µM;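 active = inhibition above the mean plus 3 SD, with well images judged a real hit on visual review, cut at about 60% in these data, passing the limit was not always enough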
GALR2 agonist: agonists of human galanin receptor 2 (GALR2); activation, %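 (tested at 5 µM)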; 140,000 compounds, 0.48% hits; GALR2-expressing cells, agonist activation read-out; O43603; AID 803;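 active = above mean plus 3 SD of all compounds, about 5% in these data, not always enough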;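 note: 0% = vehicle buffer wells and 100% = reference agonist at full effect; tested in CHO reporter cells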
Target sequence (O43603 whole entry, looked up): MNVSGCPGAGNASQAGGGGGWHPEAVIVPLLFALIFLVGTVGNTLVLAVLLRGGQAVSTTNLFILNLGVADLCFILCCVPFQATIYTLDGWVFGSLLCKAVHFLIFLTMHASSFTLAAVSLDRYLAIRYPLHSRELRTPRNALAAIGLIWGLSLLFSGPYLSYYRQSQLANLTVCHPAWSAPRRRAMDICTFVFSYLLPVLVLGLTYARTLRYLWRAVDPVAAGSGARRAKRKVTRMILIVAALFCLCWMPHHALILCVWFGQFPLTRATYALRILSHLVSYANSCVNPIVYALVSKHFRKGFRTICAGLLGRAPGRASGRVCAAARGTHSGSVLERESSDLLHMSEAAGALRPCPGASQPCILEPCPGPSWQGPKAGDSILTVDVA
HSV replic up: increases HSV replication in cells | maximum fold increase | HSV replication augmentation in cells, fold increase | AID 1956 | 220,000 compounds, 0.005% hits;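 active = peak rise of 1.5-fold or more in the series; tested in PC3 cells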;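 note: first round at 10 µM; read as green reporter fluorescence; hits show the peak of a series up to 25 µM; 1 = signal of infected wells without compound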
RGS16-Gao HTS: regulators of human RGS16-Galphao interaction | AID 1441 | O15492+P09471 | 220,000 compounds, 0.38% hits | binding response (% of control), % at 10 µM | bead-based flow cytometry RGS16-Galphao binding, fluorescence; actives lie on both sides;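 active = below 25% or above 175%, edge rows of some plates excepted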;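 note: Galphao activated by GDP with aluminum fluoride before binding; 100% = wells without compound and 0% = beads without RGS; some results beyond the cut were filed as inactive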
Target sequence (O15492 whole entry, looked up): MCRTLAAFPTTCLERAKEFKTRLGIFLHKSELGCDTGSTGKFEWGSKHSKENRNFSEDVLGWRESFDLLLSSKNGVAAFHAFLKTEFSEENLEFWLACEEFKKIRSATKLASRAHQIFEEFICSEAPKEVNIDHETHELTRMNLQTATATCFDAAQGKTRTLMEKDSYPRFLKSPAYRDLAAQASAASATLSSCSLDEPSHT
Target sequence (P09471 whole entry, looked up): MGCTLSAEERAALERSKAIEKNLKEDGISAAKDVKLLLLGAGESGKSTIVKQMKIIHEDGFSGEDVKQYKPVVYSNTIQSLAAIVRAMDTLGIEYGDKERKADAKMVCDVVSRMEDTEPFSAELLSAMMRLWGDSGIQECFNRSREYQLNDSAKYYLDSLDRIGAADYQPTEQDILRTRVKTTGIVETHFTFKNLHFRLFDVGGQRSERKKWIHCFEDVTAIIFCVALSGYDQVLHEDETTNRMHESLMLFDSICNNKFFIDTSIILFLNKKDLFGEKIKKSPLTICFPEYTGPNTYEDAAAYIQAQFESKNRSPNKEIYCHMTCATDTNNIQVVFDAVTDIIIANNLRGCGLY
Insulin prom inh cell count: further read-out of Insulin prom inh, marked with its call; normalized cell count, %; measured here: cell count, toxicity; reference of the scale not given here;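 cells exposed to compound for 48 h; stained nuclei by imaging scaled within each plate; lower means fewer cells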
HSV replic up primary fold: recorded beside HSV replic up, whose call it bears; fold increase; compound at 10 µM; measured here: primary screen fold increase 10 uM; tested in PC3 cells;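 GFP signal in the first replicate; 1 = infected wells without compound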
Active calls of the source: *; i = inactive; . = not tested or not shown.

canonical_smiles	PKD1 kinase inh	Insulin prom inh	Insulin prom inh cell count	GALR2 agonist	HSV replic up	HSV replic up primary fold	RGS16-Gao HTS
Cc1cc2nccc(-c3ccc(Cl)c([N+](=O)[O-])c3)n2n1	-1.9	-11.1	110.0	.	i	0.92	100.2
CCNC(=S)NCCN1CCCCC1	-10.6	-44.4	60.4	-2.3	i	1.04	105.0
CCOc1cc(C(=S)N2CCOCC2)ccc1OS(=O)(=O)c1ccccc1	-11.1	-34.4	133.9	-0.6	i	0.91	105.8
O=C(Nc1ccn(-c2ccccc2)n1)c1ccc(S(=O)(=O)N2CCCCCC2)cc1	9.3	28.6	77.7	-2.3	i	0.82	103.2
COc1ccccc1CNC(=O)C1CCN(S(=O)(=O)c2c(C)noc2C)CC1	-11.6	13.0	104.4	0.6	i	1.02	100.6
COc1cc(C2CC(C(F)(F)F)n3ncc(C(=O)O)c3N2)cc(OC)c1OC (stereo unspecified)	-12.7	.	.	-2.8	i	0.88	101.7
Cc1cc(Br)c(OCc2ccc(C(=O)N/N=C3\CC4CC=CC34)cc2)c(Br)c1 (stereo unspecified)	-3.9	33.3	73.8	-0.6	i	0.91	101.7
CC(OC(=O)c1ccccc1N1C(=O)C2C3CCC(C3)C2C1=O)C(=O)c1ccccc1 (stereo unspecified)	4.3	-26.7	74.3	-1.3	i	1.05	42.2
COc1ccc(OC)c(NC(=O)CSc2nnc(CCCO)n2-c2ccccc2)c1	-1.7	23.5	115.3	-1.4	i	1.07	93.1
CCOC(=O)/C(=C\c1ccccc1)NC(=O)c1ccccc1	.	.	.	.	i	0.91	96.8

Carrying on.
canonical_smiles	PKD1 kinase inh	Insulin prom inh	Insulin prom inh cell count	GALR2 agonist	HSV replic up	HSV replic up primary fold	RGS16-Gao HTS
Nn1cnc2c([nH]c3ccccc32)c1=O	-6.4	.	.	-1.8	i	1	100.8
CCOc1ccc(OC(=O)NC(c2ccccc2)C(Cl)(Cl)Cl)cc1 (stereo unspecified)	15.8	38.2	67.7	-1.3	i	0.88	113.8
CCCN1C(=S)SC(C)(C)C1/[N+]([O-])=C/c1cccnc1 (stereo unspecified)	-10.7	14.3	142.1	-0.4	i	0.9	110.9
Cc1ccc(CN2CCCC(CO)(Cc3ccccc3C)C2)s1 (stereo unspecified)	-5.8	.	.	.	i	0.98	95.5
CCn1c(CNC(=O)c2ccco2)nnc1SCC(=O)Nc1cc(C)c(C)cc1Br	10.0	7.1	135.6	-0.3	i	0.8	103.5
Cc1nn(C)c(C)c1NC(=O)CSc1nc(-c2ccccc2Cl)nc2c1cnn2-c1ccccc1	-1.9	30.8	173.5	1.2	i	0.62	94.3
Cc1ccc(C(=O)n2nnc3ccccc32)cc1	-0.3	-117.1	118.3	-2.1	i	1.03	.
CC(=O)N1CCN(c2ccc(S(=O)(=O)N3CCCCC3)cn2)CC1	0.4	45.0	52.0	-0.7	i	0.72	100.8
O=C(NNS(=O)(=O)c1ccc(C(F)(F)F)cc1)c1cnn(-c2ccccc2)c1C(F)(F)F	.	.	.	.	i	0.97	102.3
COc1cc(/C=C/C(=O)NNc2c(F)c(F)cc(F)c2F)ccc1OC(F)F	-5.6	15.6	107.8	-4.5	i	0.953	102.4

(more compounds)
canonical_smiles	PKD1 kinase inh	Insulin prom inh	Insulin prom inh cell count	GALR2 agonist	HSV replic up	HSV replic up primary fold	RGS16-Gao HTS
Cc1c(C(=O)N2CCCCC2)sc(NC(=O)c2ccco2)c1C#N	-1.3	-47.4	86.9	-3.4	i	0.99	107.1
CCOCCCNC(=O)C(c1ccc(Cl)cc1)N(Cc1ccc2c(c1)OCO2)C(=O)CNC(C)=O (stereo unspecified)	-3.9	.	.	.	i	1.1	98.8
CCC(=O)N1CCc2cc(S(=O)(=O)N3CCc4ccccc43)ccc21	-3.5	-10.7	112.5	-1.4	.	.	110.2
O=c1cc2c(nn1Cc1ccc(F)cc1)-c1ccccc1CC2	2.8	.	.	.	i	1.21	97.7
CC(NC(=O)c1ccccc1Br)c1ccc2c(c1)CCCC2 (stereo unspecified)	12.0	-15.6	56.1	-0.9	i	1.41	105.4
Cn1c(=O)c2c(nc(SCC(=O)N3c4ccccc4CCc4ccccc43)n2C)n(C)c1=O	-13.8	.	.	-0.7	i	0.95	99.0
CC1=CN2C(=NC(=O)CC2(C)C(=O)N(CC(=O)NC2CCCC2)c2ccccc2C)C=C1 (stereo unspecified)	1.1	-430.8	46.2	-1.3	i	0.74	112.0
COc1ccc(CC(=O)Nc2cccc(-c3nnc(-c4cccc(C)c4)o3)c2)cc1OC	-6.8	0.0	84.1	-0.5	i	0.937	102.4
O=C(O)C1CCN(C(=O)Cc2ccccc2)CC1	0.8	66.7	111.6	.	i	1.08	98.3
CN(C)S(=O)(=O)c1ccc(C(=O)N2CCC(c3nc4ccccc4o3)CC2)cc1	-7.4	16.2	103.1	-0.3	i	1.09	91.2

Complete entries from above.
CC(NC(=O)c1ccccc1Br)c1ccc2c(c1)CCCC2 (stereo unspecified) is listed as PKD1 kinase inh = 12.0; Insulin prom inh = -15.6; Insulin prom inh cell count = 56.1; GALR2 agonist = -0.9; HSV replic up = i; HSV replic up primary fold = 1.41; RGS16-Gao HTS = 105.4
O=c1cc2c(nn1Cc1ccc(F)cc1)-c1ccccc1CC2 is listed as PKD1 kinase inh = 2.8; Insulin prom inh = .; Insulin prom inh cell count = .; GALR2 agonist = .; HSV replic up = i; HSV replic up primary fold = 1.21; RGS16-Gao HTS = 97.7

Continued:
canonical_smiles	PKD1 kinase inh	Insulin prom inh	Insulin prom inh cell count	GALR2 agonist	HSV replic up	HSV replic up primary fold	RGS16-Gao HTS
C/C(=N\NC(=O)CCC(=O)Nc1ccccc1)c1cccs1	2.8	-31.2	127.9	-1.5	i	0.93	113.4
COC(=O)c1c(-c2cc(C)ccc2C)csc1NC(=O)C1CC=CCC1C(=O)O (stereo unspecified)	-3.8	-38.9	71.4	.	i	0.85	104.3
COc1ccccc1OC(C)C(=O)O (stereo unspecified)	-5.2	36.4	100.0	-0.8	i	0.89	104.2
O=C(CCC1COc2ccccc2O1)NCc1ccccc1 (stereo unspecified)	-3.1	53.6	44.1	-1.2	i	0.9	103.2
CCOCCn1c(=NC(=O)/C=C/c2ccccc2Cl)sc2cc(NC(C)=O)ccc21	9.0	.	.	3.4	i	1.12	102.0
Cn1nnnc1NCc1ccc(Cl)c(Cl)c1	-0.3	.	.	.	i	0.56	105.4
Cn1c(SCC(=O)c2ccc3c(c2)Cc2ccccc2-3)nnc1-c1ccccc1	14.7	17.1	125.4	-2.0	i	0.94	99.6
COc1ccc(C(=O)n2nnc3ccccc32)cc1OC	-8.8	-306.2	66.4	-1.1	i	0.84	104.7
CCOc1cc(CNCCN2CCOCC2)ccc1OCc1ccccc1Cl	-3.1	.	.	.	i	0.97	102.7
Cc1cc(C)c(S(=O)(=O)Nc2nnc(C)s2)c(C)c1	-6.7	28.6	67.2	-0.2	i	0.89	103.2

3 entries from above, ordered by heavy-atom count, smallest number first.
canonical_smiles	PKD1 kinase inh	Insulin prom inh	Insulin prom inh cell count	GALR2 agonist	HSV replic up	HSV replic up primary fold	RGS16-Gao HTS
O=C(CCC1COc2ccccc2O1)NCc1ccccc1 (stereo unspecified)	-3.1	53.6	44.1	-1.2	i	0.9	103.2
Cn1c(SCC(=O)c2ccc3c(c2)Cc2ccccc2-3)nnc1-c1ccccc1	14.7	17.1	125.4	-2.0	i	0.94	99.6
CCOCCn1c(=NC(=O)/C=C/c2ccccc2Cl)sc2cc(NC(C)=O)ccc21	9.0	.	.	3.4	i	1.12	102.0

(listing goes on)
canonical_smiles	PKD1 kinase inh	Insulin prom inh	Insulin prom inh cell count	GALR2 agonist	HSV replic up	HSV replic up primary fold	RGS16-Gao HTS
COc1cc(/C=C/C(=O)O)cc(S(=O)(=O)Nc2ccc3nc(C)sc3c2)c1OC	.	.	.	.	i	0.99	98.7
CC(C)(C)NC(=O)Cn1cnc([N+](=O)[O-])n1	-15.1	54.8	86.4	-1.3	i	0.67	105.5
CCC1C(O)=C(c2ccccn2)C(=N)N1c1ccccc1 (stereo unspecified)	-7.8	15.4	106.6	-1.6	i	0.97	103.9
CCc1nnc(SCC(=O)Nc2ccc(C(C)=O)cc2)nc1CC	.	.	.	.	i	0.92	103.9
COCCNC(=S)N(Cc1cccnc1)Cc1ccc(OC)c(OC)c1	10.1	25.0	80.8	-1.0	i	0.99	105.9
Cc1c(C(=O)NC2=NCCS2)oc2ccccc12	0.1	-15.8	211.1	-0.6	i	0.77	96.8
Cc1sc(NC(=O)C2CCCCC2C(=O)O)c(C(N)=O)c1-c1ccccc1 (stereo unspecified)	-3.3	4.2	94.9	-4.5	i	0.92	99.8
Cc1cc(C)cc(NC(=O)C2CCCN2C(=O)Oc2ccccc2)c1 (stereo unspecified)	-13.7	-5.4	93.2	-1.6	i	1.15	91.9
Cc1ccc(Cn2c(Sc3nccc(C)n3)nc3c2c(=O)[nH]c(=O)n3C)cc1	-3.2	.	.	-2.9	i	1.01	91.7
N#Cc1cc2cc3ccccc3nc2n2c(=O)c3ccccc3nc12	-0.4	-83.3	31.0	.	i	0.99	106.3

(further entries)
canonical_smiles	PKD1 kinase inh	Insulin prom inh	Insulin prom inh cell count	GALR2 agonist	HSV replic up	HSV replic up primary fold	RGS16-Gao HTS
O=C(Nc1ccccc1)N1CCN(C2c3ccccc3-c3ccccc32)CC1	.	.	.	.	i	1.22	96.6
O=C(CSc1ncccc1-c1nc2ccccc2[nH]1)N1CCN(c2ccccc2F)CC1	3.4	14.3	129.7	-0.3	i	0.96	99.0
Cc1[nH]n(-c2ccccc2)c(=O)c1/C=N/Nc1nncc(-c2ccccc2)n1	-4.8	34.1	65.0	-1.1	i	0.76	.
CCC(C)NC(=O)c1c(C)cc(=O)oc1C (stereo unspecified)	-7.4	-9.1	88.1	-1.9	i	0.9	102.3
O=C(CN1CCc2ccccc21)NCc1ccc2c(c1)OCO2	-5.9	.	.	-1.0	i	0.9	108.5
CC(C)C(NC(=O)c1cccc(S(=O)(=O)N2CCOCC2)c1)C(=O)NCCc1ccccn1 (stereo unspecified)	-6.6	27.3	60.2	-1.8	i	0.99	102.0
CCn1nc(C(=O)OCC(=O)N2CCc3ccccc32)c2ccccc2c1=O	-13.4	-27.0	178.9	-0.7	i	0.96	105.7
Cc1cc(Cl)ccc1OCC(=O)Nn1c(C)ccc1C	1.3	31.5	61.0	-4.2	i	1.1	102.2
Cc1cccc(-n2c(C)cc(/C=N/n3cnnc3)c2C)c1	-14.0	0.0	58.7	-3.3	i	0.96	98.1
O=C(CSc1n[nH]c(=O)[nH]c1=O)NC1CCCCC1	.	.	.	.	i	1.14	114.1

Carrying on:
canonical_smiles	PKD1 kinase inh	Insulin prom inh	Insulin prom inh cell count	GALR2 agonist	HSV replic up	HSV replic up primary fold	RGS16-Gao HTS
CC(=O)n1cc([C@@H]2C=C(C(=O)Nc3ccccc3)O[C@H](OCc3ccc(CO)cc3)C2)c2ccccc21	2.9	.	.	.	i	0.78	103.5
Cc1ccc(NC(=O)CS(=O)(=O)c2c[nH]c3ccccc23)c(C)c1	-5.3	.	.	-2.4	i	1.05	97.9
CC(/C=N/O)Cc1ccc2c(c1)OCO2 (stereo unspecified)	-3.9	11.1	158.1	-0.4	i	0.94	103.0
COc1ccc(OC)c(NS(=O)(=O)c2ccc(Br)s2)c1	-5.8	-13.5	127.9	.	i	0.95	87.2
CC(Sc1nnc(N)s1)c1ccccc1Cl (stereo unspecified)	11.6	.	.	-1.3	i	0.91	101.7
COc1cc2c(cc1OC)C(=O)CC(C)S2 (stereo unspecified)	14.2	.	.	-0.7	i	0.88	105.1
Cc1ccc(SCc2cc(-c3ccc(Cl)cc3)on2)cc1	-0.8	-13.3	89.9	-1.2	i	0.96	97.7
C=CCOCCN(C)C1=NS(=O)(=O)c2cc([N+](=O)[O-])ccc21	-0.4	20.9	73.6	.	i	0.95	97.0
Cc1ccccc1OCC(=O)NCCc1nc2ccccc2[nH]1	-10.2	21.4	104.8	-2.2	i	0.82	105.8

Screening data: PubChem, several laboratories
